NS1 inh: inhibitors of influenza NS1 protein function; Potency, µM (series often up to 46.1 µM), for inactives: top-dose activity, positive = more growth; S. cerevisiae slowed by influenza A NS1, growth recovery by OD600; actives 0.4% (n = 270,000); also: actives are rising curves; nearly all actives have a fitted effect of over 50% in size
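A cell-based growth assay was used: compounds that relieve NS1-induced slow growth of budding yeast raise OD600. Assay medium was yeast nitrogen base with ammonium sulphate and -URA supplement, pH 6.0, with 2% galactose.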
MARV entry inh: blocks Marburg virus binding to or entry into cells. Potency, µM (doses to about 37.8 µM), inactives show at the highest dose activity change, negative = inhibition, hits mostly inhibitors. actives 1.8% (n = 300,000). Marburg virus pseudotyped entry inhibition, cell reporter; control for the full effect not named in the record; about a third of the inactives were read at about 46 µM; active = well fitted inhibition curve with a large enough effect; inconclusive = small, poorly fitted or top-dose-only effect, or effect the other way; inactive = flat fitted curve, though single readings scatter; tested in HEK293 cells; about a fifth of its hits are not listed in these tables; also: % is scaled to controls: 0 for no effect and ±100 for the full control effect; luciferase read-out
SARS PLP yeast: blocks SARS-CoV papain-like protease in a yeast assay; S. cerevisiae expressing SARS-CoV PLpro, growth rescue; control for the full effect not named in the record; Potency, µM (doses to about 32.9 µM), for inactives: at the highest dose activity, positive = growth rescue; actives 0.19% (n = 330,000); AID 485353; also: 0% is about no effect; nearly all actives have a fitted effect of over 55% in size; growth read by luminescence after 48 h
Lassa entry inh: inhibitors of Lassa virus binding or cell entry | Potency, µM (highest dose often 37.9 µM), without a hit: top-dose activity change, negative = inhibition, usual class: inhibitors | actives 1.2% (n = 300,000) | Lassa virus pseudotype entry inhibition, cell reporter; control for the full effect not named in the record; active means well fitted inhibition curve with a large enough effect; inconclusive means small, poorly fitted or top-dose-only effect, or effect the other way; inactive means flat fitted curve, though single readings scatter; tested in HEK293 cells; also: % is scaled to controls: 0 for no effect and ±100 for the full control effect; nearly all actives have a fitted effect of over 50% in size; luciferase read-out
Cruzain inh Det: cruzain (T. cruzi) inhibition with detergent; purified cruzain, Z-FR-AMC fluorescence, 0.01% Triton; Potency, µM, without a hit: max response, negative = inhibition, actives largely listed as inhibitors; actives 0.43% (n = 200,000); P25779; AID 1478; active = well fitted curve in the direction sought with a large enough effect; inconclusive = small, poorly fitted or top-dose-only effect, or another doubt; inactive = no such curve, though single readings can be large; an effect the other way counts as inactive or inconclusive;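 also: plate controls were neutral wells for no effect and buffer without enzyme for full effect; nearly all actives have a fitted effect of over 40% in size; top concentration of the series not given in the record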
Target sequence (P25779 123-467 limits assumed): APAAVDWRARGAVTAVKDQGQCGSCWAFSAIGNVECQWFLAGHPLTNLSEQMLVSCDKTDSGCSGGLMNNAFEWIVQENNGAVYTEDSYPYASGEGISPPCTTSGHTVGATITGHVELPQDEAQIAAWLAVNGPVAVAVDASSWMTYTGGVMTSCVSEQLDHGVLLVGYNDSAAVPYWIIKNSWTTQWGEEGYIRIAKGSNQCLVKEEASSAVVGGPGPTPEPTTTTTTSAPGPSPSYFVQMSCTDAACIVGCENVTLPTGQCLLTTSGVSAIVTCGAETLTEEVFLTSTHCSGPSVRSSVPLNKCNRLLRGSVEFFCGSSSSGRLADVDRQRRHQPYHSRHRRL
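Cysteine protease activity tested under reducing, mildly acidic conditions (100 mM sodium acetate pH 5.5, 5 mM DTT) plus 0.01% Triton X-100. Cruzain 1.5 nM; substrate Z-FR-AMC 2 uM; 15 min compound preincubation at room temperature.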
RE007 growth inh: less growth of the S. pombe RE007 Vpr strain; AID 651644; Potency, µM (titrated, usually from 92.2 µM), for inactives: at the highest dose activity change, negative = less growth; S. pombe RE007 Vpr strain, BacTiter-Glo ATP luminescence, 24 h; control for the full effect not named in the record; actives 0.21% (n = 360,000); active = well fitted falling curve with a large enough effect; inconclusive = small, poorly fitted or top-dose-only effect; inactive = no such curve, though single readings can be large or run the other way;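 also: % is scaled to controls: 0 for no effect and ±100 for the full control effect; nearly all actives have a fitted effect of over 50% in size; the assay follows cell death caused by Vpr and the record does not say whether a fall means rescue or toxicity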
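Fission yeast strain RE007, carrying one chromosomally integrated HIV-1 vpr copy, was seeded at OD 0.01 in PMG+AL medium with 23 nL pinned compound. After 24 h at 30 °C and 99% humidity, viability was read by BacTiter-Glo luminescence.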
Cruzain inh noDet: blocks cruzain activity in detergent-free assay | purified cruzain, Z-FR-AMC fluorescence, no detergent | Potency, µM, for inactives: max response, negative = inhibition, usual class: inhibitors | actives 2.3% (n = 200,000); active = well fitted curve in the direction sought with a large enough effect; inconclusive = small, poorly fitted or top-dose-only effect, or another doubt; inactive = no such curve, though single readings can be large; an effect the other way counts as inactive or inconclusive;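 also: plate controls were enzyme without inhibitor for no effect and buffer without enzyme for full effect; nearly all actives have a fitted effect of over 40% in size; top concentration of the series not given in the record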
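Purified cruzain at 1.5 nM, pre-incubated 15 min with compound at room temperature in 100 mM sodium acetate pH 5.5, 5 mM DTT, 0.00005% Triton X-100. Reaction started with 2 uM Z-FR-AMC; AMC fluorescence increase over 60 s gives rate.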
StopGo reporter: lowers the luciferase signal of an FMDV 2A StopGo reporter | human cells with a luciferase reporter of 2A StopGo recoding; control for the full effect not named in the record | Potency, µM (doses to about 57.9 µM), inactives show at the top dose signal change, negative = less light | actives 1.2% (n = 410,000) | AID 1159524; active = well fitted falling curve with a large enough effect; inconclusive = small, poorly fitted or top-dose-only effect; inactive = no such curve, though single readings can be large or run the other way; tested in HEK293T cells; also: % is scaled to controls: 0 for no effect and ±100 for the full control effect; nearly all actives have a fitted effect of over 45% in size; luciferase light after 4 h
Numbers without * were called inactive; u = inconclusive; x = no result given; & = joins results of further samples; [ ] = remark or other dose. Unless noted, calls follow the shape of the dose curve; as a rule, active means well fitted rising curve with a large enough effect; inconclusive means small, poorly fitted or top-dose-only effect; inactive means no such curve, though single readings can be large or run the other way. Potency is read from the fitted curve at half-maximal effect.

1. CN(C)CCNc1nc(S(=O)(=O)c2ccccc2)c(Cl)s1
2. CCSc1ccc(-c2ccco2)nn1
3. Cc1ccc(S(=O)(=O)NC2=NCCC2)cc1
4. COc1ccc(CC(=O)NCCS(=O)(=O)N2CCN(c3ccc(F)cc3)CC2)cc1OC
5. COc1ccc(C(=O)NCCS(=O)(=O)N2CCCCCC2)cc1
6. CCc1c(C#N)c(SCc2c(C)noc2C)nc2c1C(=O)CC(C)(C)C2
7. N#Cc1ccc(COC(=O)CSc2nnc(N)s2)cc1
8. O=C(NC1CCc2ccccc21)c1cc(COc2cncc(Cl)c2)on1 (stereo not drawn)

Compound,1,2,3,4,5,6,7,8
NS1 inh,x,x,4%,5%,x,-32%,-8%,-35%
MARV entry inh,u,u,-2%,-11%&-11%[46.1 µM],24%,u,-11%,24%[46.1 µM]
SARS PLP yeast,0%,-2%,6%,-2%,-1%,-19%,8%,-6%
Lassa entry inh,0%,15%,-11%,-8%&-9%[46.1 µM],4%[46.1 µM],u,-13%,u
Cruzain inh Det,x,x,2.2%,-2.2%,x,-7.8%,-3.3%,x
RE007 growth inh,1%,-12%,14%,7%,4%,16%,8%,-6%
Cruzain inh noDet,x,x,-11%,9%,x,-14%,-1%,x
StopGo reporter,6%,54%[activator],32%[activator],u,-14%,-20%,u,-25%

9. Cc1ccc(C(=O)N2CCC(n3nccc3NC(=O)C3CCOC3)CC2)cc1 (stereo not drawn)
10. CC(=O)C1=C(O)CCC1=NCCc1ccccc1
11. O=C(Nc1ccc(NC(=O)C2CCCCC2)nc1)c1ccco1
12. CN(Cc1ccccc1)Cc1ccccc1F
13. ClCC(CNCc1ccccc1)c1ccccc1 (stereo not drawn)
14. O=C(O)[C@H]1CCCNC1
15. CCOc1ccccc1NC(=O)COc1ccc(S(=O)(=O)NC2CCCCC2)cc1
16. C=CCOC(=O)C1=C(C)Nc2nnnn2C1c1cc(OC)ccc1OC (stereo not drawn)

Compound,9,10,11,12,13,14,15,16
NS1 inh,-4%,3%,-64%,-5%,x,x,x,-2%
MARV entry inh,20%,4%,4%,-10%,-7%[46.1 µM],-8%&-8%,-25%[46.1 µM],-1%
SARS PLP yeast,-1%,1%,-8%,1%,x,x,x,6%
Lassa entry inh,16%,1%,u,-3%,23%[46.1 µM],x,-11%[46.1 µM],10%
Cruzain inh Det,x,1.7%,-1.2%,5.0%,x,-0.2%,-6.7%,2.3%
RE007 growth inh,3%,-5%,-16%,15%,12%,x,x,7%
Cruzain inh noDet,x,-4%,6%,-4%,x,4%,11%,5%
StopGo reporter,-18%,x,49%[activator],9%,1%,-13%,36%[activator],0%

17. O=C(CCn1cccn1)Nc1ccc(Br)cc1F
18. Cc1nnc(NC(=O)C(C)Sc2nnc(CNC(=O)c3ccccc3F)n2C)s1 (stereo not drawn)
19. COC(=O)c1ccc2c(=O)n(CCCCCC(=O)N3CCN(c4ccc(OC)cc4)CC3)c(=O)[nH]c2c1
20. Cc1ccc(S(=O)(=O)NNC(=S)NC(C)(C)C)cc1
21. CCOc1ccccc1NC(=O)C1CCCN(S(=O)(=O)c2cccs2)C1 (stereo not drawn)
22. CCCCn1c(N)c(N(CCC(C)C)C(=O)C(C)N2C(=O)c3ccccc3C2=O)c(=O)[nH]c1=O (stereo not drawn)
23. O=C(NN=C1CCC(=NNC(=O)c2cccnc2)CC1)c1cccnc1
24. CCOC(=O)N/N=C(\C)c1cccs1

Compound,17,18,19,20,21,22,23,24
NS1 inh,x,x,x,-1%,x,x,1%,x
MARV entry inh,x,u,x,4%,3%[46.1 µM],13%,x,u
SARS PLP yeast,x,13%,x,1%,x,1%,-1%,2%
Lassa entry inh,u,24%,5%[46.1 µM],12%,12%[46.1 µM],-1%,x,15%
Cruzain inh Det,-1.8%,x,1.3%,x,-4.8%,x,x,x
RE007 growth inh,x,50%,x,2%,x,6%,22%,0%
Cruzain inh noDet,-5%,x,-15%,x,-14%,x,x,x
StopGo reporter,13%,-10%,5%,8%,0%,-9%,-18%,48%[activator]

25. CCNCC(=O)N1c2ccccc2CCc2ccc(NC(=O)OCC)cc21
26. CCOC(=O)c1cnc2c(ccc3ccccc32)c1Nc1ccc(N(C)C)cc1
27. CCN(CC)CCNC(=O)CS(=O)Cc1nc(-c2ccc(C)cc2)oc1C (stereo not drawn)
28. Cc1cccc(C(=O)Nc2cccc(C(=O)N3CCOCC3)c2)c1
29. COc1ccc(NC(=O)CN2CCc3ccccc3C2)c([N+](=O)[O-])c1
30. Cc1c(N=Nc2c(O)[nH]c(=S)[nH]c2=O)c(=O)n(-c2ccccc2)n1C
31. COc1ccc(O)c(/C=N/NC(=S)NCCc2ccccc2)c1
32. CC(Nc1nc(-c2cccnc2)nc2ccccc12)c1ccc(F)cc1 (stereo not drawn)

Compound,25,26,27,28,29,30,31,32
NS1 inh,0%,x,7%,0%,12%,-3%,2%,-56%
MARV entry inh,u,5%[46.1 µM],-26%,u,0%,-16%,u,u
SARS PLP yeast,1%,x,u,3%,1%,-4%,-1%,-66%
Lassa entry inh,u,20%[46.1 µM],-1%,-10%,-2%,22%,u,-2%[46.1 µM]
Cruzain inh Det,x,-0.7%,1.1%,0.7%,x,-8.7%,x,x
RE007 growth inh,4%,x,-6%,4%,15%,7%,-13%,-9%
Cruzain inh noDet,x,-5%,0%,2%,x,-16%,x,x
StopGo reporter,-22%,-10%,0%,18%,10%,-23%,-24%,-4%

33. O=C1CN(C(=O)c2ccc(Br)o2)C(c2ccc(F)cc2)c2cc(Cl)ccc2N1 (stereo not drawn)
34. CC1CCc2nc(NC(=O)CN3CCN(c4ccc(F)cc4)CC3)sc2C1 (stereo not drawn)
35. Cc1ccc(-c2ocnc2C(=O)N2CCN(C(=O)c3cccs3)CC2)cc1
36. O=C(O)C(F)=C1c2ccccc2-c2ccccc21
37. CCCCCCCCSc1n[nH]c(N)n1
38. COc1ccc(CC(=O)NCc2nnc(SCC(=O)N3CCN(c4ccccc4)CC3)n2C)cc1
39. CCOC(=O)c1ccc(NC(=O)c2ccc(=O)n(Cc3cccc(C)c3)c2)cc1
40. CCOC(=O)Cc1csc(NC(=O)COc2ccc(C)cc2)n1

Compound,33,34,35,36,37,38,39,40
NS1 inh,-8%,0%,-7%,x,-45%,-5%,x,-4%
MARV entry inh,u,12%,1%[46.1 µM],0%,-3%,-13%&-13%,x,x
SARS PLP yeast,-7%,1%,7%,x,-65%,x,x,-4%
Lassa entry inh,-24%,-17%,-15%,-13%,-2%,19%,u,x
Cruzain inh Det,-7.3%,-12%,x,x,-8.6%,x,-7.1%,x
RE007 growth inh,15%,-6%,-5%,1%,-1%,3%,x,-5%
Cruzain inh noDet,-6%,6%,x,x,-1%,x,u,x
StopGo reporter,-16%,u,-7%,u,9%,13%,u,22%

41. CCOc1ccc(/C=C/C(=O)Nc2sc3c(c2C(=O)OC)CCC3)cc1
42. CCOC(=O)Cc1cc(=O)n2[nH]c(C)c(-c3ccccc3OC)c2n1
43. CC(C(=O)N1CCc2ccccc21)N1CCN(c2ccccn2)CC1 (stereo not drawn)
44. COC(=O)c1sccc1NC(=O)c1ccccc1[N+](=O)[O-]
45. COc1cc(/C=N/Nc2ccc(S(N)(=O)=O)cc2)cc(OC)c1OC
46. Cc1ccccc1-n1c(SC(C)C(=O)NCC2CCCO2)nnc1-c1ccncc1 (stereo not drawn)
47. O=C(CSc1nc(=O)n(CCN2CCOCC2)c2c1CCCC2)Nc1ccc(F)cc1F
48. CN1C(=O)C(=O)/C(=C(/O)c2ccc(Br)cc2)C1c1ccccc1F (stereo not drawn)

Compound,41,42,43,44,45,46,47,48
NS1 inh,x,5%,10%,19%,x,x,x,2%
MARV entry inh,x,-19%[46.1 µM],3%,u,u,-11%[46.1 µM],-13%,13%[46.1 µM]
SARS PLP yeast,x,1%,u,10%,0%,x,-2%,-1%
Lassa entry inh,9%[46.1 µM],0%,7%,3%,u,14%,u,17%[46.1 µM]
Cruzain inh Det,-3.3%,x,-3.5%,-6.9%,x,x,x,x
RE007 growth inh,x,-10%,-5%,-6%,-19%,-13%,-6%,1%
Cruzain inh noDet,-4%,x,-5%,4%,x,x,x,x
StopGo reporter,0%,7%,-1%,-19%,28µM*,14%,-16%,-16%

49. CCC1CN(S(=O)(=O)c2cc(-c3cc(C)no3)ccc2OC)c2cc(Cl)ccc2O1 (stereo not drawn)
50. O=S(=O)(Nc1ccc(-n2cnnn2)cc1)c1ccc(Cl)cc1
51. Clc1ccc(N2CCN(/N=C/c3ccncc3)CC2)cc1
52. COc1ccccc1CNC(=O)c1c(O)nc2c(C)cccn2c1=O

Compound,49,50,51,52
NS1 inh,x,x,0%,x
MARV entry inh,x,24%,u,18%[46.1 µM]
SARS PLP yeast,x,1%,-2%,x
Lassa entry inh,12%[46.1 µM],16%,-21%[46.1 µM],x
Cruzain inh Det,-1.7%,x,x,-0.6%
RE007 growth inh,x,7%,-3%,x
Cruzain inh noDet,-4%,x,x,3%
StopGo reporter,21%,20%,-18%,-6%

Record cards, from the list above. Values in the order: NS1 inh	MARV entry inh	SARS PLP yeast	Lassa entry inh	Cruzain inh Det	RE007 growth inh	Cruzain inh noDet	StopGo reporter
`Clc1ccc(N2CCN(/N=C/c3ccncc3)CC2)cc1` is listed as 0%	u	-2%	-21%[46.1 µM]	x	-3%	x	-18%
`O=S(=O)(Nc1ccc(-n2cnnn2)cc1)c1ccc(Cl)cc1` is listed as x	24%	1%	16%	x	7%	x	20%
`CCC1CN(S(=O)(=O)c2cc(-c3cc(C)no3)ccc2OC)c2cc(Cl)ccc2O1` (stereo not drawn) is listed as x	x	x	12%[46.1 µM]	-1.7%	x	-4%	21%

Compound activity deposited in PubChem by National Center for Advancing Translational Sciences (NCATS).

The order is random; overall some 4.7% were active at least once.
